# Source: PubChem
# T cruzi inh = inhibitors of intracellular T. cruzi growth, primary screen, luminescence, NIH3T3 host cells. T. cruzi beta-gal in NIH3T3, 90 h. inhibition, % (no concentration beside the values). 300,000 compounds, 1.4% hits;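 active means mean inhibition across valid replicates above about 55%, limit read from the data; inconclusive means mean below that limit but half or more replicates reach it; inactive means mean below it, under half of replicates reach it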;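 further: signal also drops with host cell toxicity which is not excluded here; 0% = plate median of DMSO wells and 100% = zero luminescence signal; higher percent means less beta-gal luminescence so fewer parasites; stock transfer was 50 nL into about 50 µL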
# Calb FLC = C. albicans growth inhibition with fluconazole, primary screen, CaCi-2 strain, Alamar Blue fluorescence | growth inhibition, % (test concentration not listed) | C. albicans CaCi-2 (fluconazole-resistant clinical isolate) + fluconazole, 48 h | 300,000 compounds, 0.57% hits;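 active means most replicates above 75%; inconclusive means exactly half above 75%; inactive means most below 75%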;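 further: all wells also contain fluconazole at 8 µg/ml as a sub-toxic cotreatment; 0% = median of DMSO wells and 100% = median of geldanamycin control wells; wells of about 8 µL received 7.5 nL stock; the first replicate is given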
# LANA-H2B inh = blockers of LANA interaction with H2A/H2B – biochemical, FP readout, HTS, primary screen; Protein LANA1 (Human herpesvirus 8 type P (isolate GK18)), Q9QR71; cell-free LANA-H2A/H2B peptide, fluorescence polarization; inhibition, % (concentration not given with the values); 320,000 compounds, 0.6% hits; in the data active means inhibition mostly above about 10%, no sharp cut-off; inactive means mostly below about 6.7%;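 further: stock transfer was 7.5 nL into about 10 µL; 0% = median of vehicle wells and 100% = median of positive control wells; one replicate is shown; the record names a cut of 25% in any replicate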
# Target sequence (Q9QR71 whole entry, looked up): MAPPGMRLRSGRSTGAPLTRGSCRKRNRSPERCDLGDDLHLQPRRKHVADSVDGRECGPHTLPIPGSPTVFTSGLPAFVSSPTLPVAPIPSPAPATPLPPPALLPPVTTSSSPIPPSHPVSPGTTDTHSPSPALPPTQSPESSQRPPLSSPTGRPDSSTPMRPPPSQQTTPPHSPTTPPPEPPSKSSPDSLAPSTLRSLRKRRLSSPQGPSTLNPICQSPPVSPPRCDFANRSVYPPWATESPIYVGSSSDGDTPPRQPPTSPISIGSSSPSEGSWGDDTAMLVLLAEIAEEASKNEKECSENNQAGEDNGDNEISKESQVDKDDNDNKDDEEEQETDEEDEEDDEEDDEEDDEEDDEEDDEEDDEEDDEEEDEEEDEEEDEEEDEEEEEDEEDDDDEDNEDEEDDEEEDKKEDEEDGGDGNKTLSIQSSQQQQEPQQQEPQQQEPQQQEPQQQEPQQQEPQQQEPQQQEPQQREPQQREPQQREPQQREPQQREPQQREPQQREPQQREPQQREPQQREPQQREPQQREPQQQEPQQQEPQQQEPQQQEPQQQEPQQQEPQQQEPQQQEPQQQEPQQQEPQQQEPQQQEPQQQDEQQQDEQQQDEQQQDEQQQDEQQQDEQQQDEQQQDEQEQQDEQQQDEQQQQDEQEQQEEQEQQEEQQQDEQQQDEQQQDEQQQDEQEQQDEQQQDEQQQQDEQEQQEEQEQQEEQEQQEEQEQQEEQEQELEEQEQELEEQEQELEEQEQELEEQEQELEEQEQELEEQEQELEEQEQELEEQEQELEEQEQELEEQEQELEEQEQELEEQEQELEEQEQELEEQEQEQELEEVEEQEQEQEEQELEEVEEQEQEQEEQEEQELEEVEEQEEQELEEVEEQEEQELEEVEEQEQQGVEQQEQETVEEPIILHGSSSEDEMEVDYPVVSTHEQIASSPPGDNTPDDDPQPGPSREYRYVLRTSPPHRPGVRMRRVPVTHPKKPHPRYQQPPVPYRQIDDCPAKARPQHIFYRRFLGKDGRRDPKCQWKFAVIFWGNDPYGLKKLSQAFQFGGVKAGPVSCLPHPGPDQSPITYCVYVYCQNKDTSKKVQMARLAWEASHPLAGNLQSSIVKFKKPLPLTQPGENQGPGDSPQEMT
# rRNA inh HTS = reduced GFP signal of wild-type E. coli, primary screen, bacterial rRNA inhibitor project, GFP/RFP fluorescence, OD600, single point; E. coli WT GFP vs humanized-ribosome RFP mutants, 24 h; active compounds read low; DMSO median 0, no signal -100; 350,000 compounds, 1.6% hits; AID 720706, 2013; GFP signal change (wild-type ribosome), % (test concentration not listed);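 active means significant combined selectivity score with lowered wild-type GFP, culture density cut under 30%, mutant RFP and density less affected; inactive means any of these conditions unmet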; further: one replicate is shown; some compounds called inactive have numbers as strong as hits
# Bfl-1 A1 inh = caspase 3/7 activation in MEF A1-2A-BIM cells, primary screen, A1 inhibitor project, cell-based, luminescence, HTS; 330,000 compounds, 0.066% hits; caspase activation, % (concentration not given with the values); Caspase-Glo 3/7 luminescence, 3 h; percent of clofoctol response, vehicle zero;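 active means over half of replicate activation scores above 10%, or exactly half above 10 with the replicate mean above 10; inconclusive means replicate mean below 10 yet half the replicates above 10; inactive means over half of replicates below 10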;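 further: wells of about 30 µL received 50 nL stock; many hits fall short of the cut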
# Beta2AR agonist = beta2AR agonists driving receptor internalization, primary screen, cell-based, FAP fluorogen, flow cytometry; Beta-2 adrenergic receptor (Homo sapiens), P07550; Am2.2-beta2AR cells; reference of the scale not given here; response, % (no concentration beside the values); 340,000 compounds, 0.43% hits; AID 504454, 2011;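 active means response above a set limit, near 3 SD of response in nonfluorescent compounds, cut at about 42% in these data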;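 further: stock transfer was 100 nL into about 11 µL; a reference agonist was the positive control; negative values mostly stem from fluorescent compounds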
# Beta cell apopt = inhibitors of cytokine-induced beta cell apoptosis, primary screen, luminescence. protection from apoptosis, % (no concentration beside the values). INS-1E cytokine-induced death, ATP luminescence, 48 h; percent of positive-control rescue, neutral wells zero. 300,000 compounds, 0.8% hits;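 active means all replicates at 75% or more, or half of them and the mean; inconclusive means half reach 75% but not the mean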;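 further: 0% = cytokine-treated negative control wells and 100% = positive control rescue; higher means more ATP so stronger rescue from cytokine killing; wells of about 40 µL received 100 nL stock; the first replicate is given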
# ALR H2O2 inh = inhibitors of human ALR sulfhydryl oxidase, primary screen, biochemical, H2O2 detection, HRP-luminol luminescence, single point. FAD-linked sulfhydryl oxidase ALR (Homo sapiens), P55789. purified ALR, DTT oxidation. inhibition, % (concentration not given with the values). 290,000 compounds, 3.8% hits. AID 485317, 2010;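 active means mean and each replicate at 75% or more; inconclusive means only one of the two met; inactive means neither met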;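 further: stock transfer was 7.5 nL into about 7.5 µL; 0% = neutral wells and 100% = wells with inactivated enzyme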
# rRNA inh HTS OD600 = second read-out of rRNA inh HTS, no call of its own (marks repeat the call); OD600 change, %; measured here: OD600 growth;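 optical density of the mix in the first replicate; 0 = DMSO median and -100 = no signal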
# rRNA inh HTS RFP = second read-out of rRNA inh HTS, no call of its own (marks repeat the call); RFP signal change, %; measured here: RFP humanized mutant strains;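 first replicate; 0 = DMSO median and -100 = no signal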
# Numbers without * were called inactive; i = inactive; ? = inconclusive; . = not tested or not shown. Only part of the results is shown, so the mix of outcomes need not match the whole.
SMILES,T cruzi inh,Calb FLC,LANA-H2B inh,rRNA inh HTS,rRNA inh HTS OD600,rRNA inh HTS RFP,Bfl-1 A1 inh,Beta2AR agonist,Beta cell apopt,ALR H2O2 inh
Cc1cc2c(=O)n(C)c(SCC(=O)Nc3ccccc3C)nc2s1,1,-3,-0.7,3,6,0.4,1.4,-5,2,-7
Fc1ccccc1CSc1nc2ncccc2[nH]1,?,12,-3.8,.,.,.,-7.7,-25,-4,1
CC(Oc1cc2oc(=O)c3c(c2cc1Cl)CCC3)C(=O)NC1CC(C)(C)NC(C)(C)C1 (centres undefined),24,-5,4.7,5,8,2.6,0.2,-4,.,-3
COc1ccc(NC(=O)N/C=C/c2ccc(Cl)cc2)cc1,-10,4,-3.6,-17,-12,-2.0,0.6,-3,-2,-5
CC1(NC(=S)NCCO)CCS(=O)(=O)C1 (centres undefined),-16,0,-0.7,.,.,.,-0.4,4,-9,.
COc1ccc(C)cc1-n1nnnc1SC/C(O)=C(\C#N)c1nc2ccccc2[nH]1,9,36,-1.1,.,.,.,0.4,-4,5,-9
Cc1ccccc1C(=O)N[C@H](C(=O)OCC(=O)NC1CC1)C(C)C,.,.,-4.2,8,23,-0.8,0.2,-3,3,.
Cc1ccc(NC(=O)CCS(=O)(=O)c2cccc3nonc23)c(Cl)c1,10,1,-1.6,7,6,1.3,0.6,-3,-4,.
COc1cc(/C=N\Nc2cc(=O)n(C)c(=O)n2C)ccc1O,4,14,-4.3,.,.,.,0.3,-1,-3,.
COc1ccc(CNC(=O)CSc2nnc(C)s2)cc1,-7,-11,3.8,.,.,.,0.4,-4,2,4
CCC1CCCCN1CCCNC(=O)c1ccc(N2CCOCC2)c(NS(=O)(=O)c2ccc(OC)cc2)c1 (centres undefined),30,-2,6.5,21,14,3.8,0.4,1,-4,-1
O=C(CCNc1cccc(F)c1)c1cccc([N+](=O)[O-])c1,16,-2,-2.5,4,13,-2.0,-0.6,0,-7,36
COc1cc(C(=O)N2CCC(NC(=O)C(Cc3ccccc3C)NC(C)=O)CC2)cc(OC)c1OC (centres undefined),-14,15,4.4,.,.,.,0.8,5,.,.
S=C(NCc1ccc2[nH]c3c(c2c1)CCCC3)Nc1ccccc1,-16,3,-7.7,-4,-10,-3.8,.,-5,-8,-13
CCOC(=O)CNC(=O)CSc1nc2cccnc2n1C1CCCCC1,-6,3,1.9,.,.,.,0.3,1,0,-2
NC(=O)Cn1cnc(-c2ccccc2)c1,-3,-3,1.3,10,8,5.4,-0.3,1,-4,-20
COc1ccc(-c2noc3c2-c2nc(-c4ccccc4)sc2CC3)cc1,3,20,4.8,21,27,4.4,-0.2,1,.,-1
Cc1cc(C)cc(N(C(C)C(=O)NCCC2=CCCCC2)S(C)(=O)=O)c1 (centres undefined),16,21,.,-48,-64,-15,.,-1,.,.
CCOc1ncccc1C(=O)OCC(=O)NCCc1ccc(S(N)(=O)=O)cc1,.,.,4.3,9,3,0.5,-1.0,-4,3,-1
CCN(CC)S(=O)(=O)c1ccc(C(=O)NCc2n[nH]c(=S)n2-c2ccccc2OC)cc1,15,-8,2.8,.,.,.,0.4,2,-1,47
Clc1ccc(Cn2ncc3c(N4CCOCC4)ncnc32)cc1,-5,7,-4.2,.,.,.,0.1,-1,-2,-11
Cc1ccc(CCN2CC(C(=O)O)CC2=O)cc1 (centres undefined),-13,7,1.4,.,.,.,-1.3,0,-1,-1
CCCOc1ccc(CNCCCOCC)cc1OC,63*,1,2.5,17,5,3.6,0.3,7,-21,-14
Cc1cccc2cc(CN(Cc3ccc(F)cc3)C(=O)N(C)C)c3nnnn3c12,12,-9,-1.3,.,.,.,0.2,12,14,.
O=C(NC(=S)Nc1cccc(CO)c1)c1ccc(-c2ccccc2)cc1,-25,-5,0.9,-5,-5,0.1,-0.5,-8,-1,-11

# Later entries:
SMILES,T cruzi inh,Calb FLC,LANA-H2B inh,rRNA inh HTS,rRNA inh HTS OD600,rRNA inh HTS RFP,Bfl-1 A1 inh,Beta2AR agonist,Beta cell apopt,ALR H2O2 inh
COc1ccccc1CN(C)C(=O)CN1CCN(S(=O)(=O)c2ccc3c(c2)OCCCO3)CC1,.,.,i,-8,-19,2.8,-0.3,-1,5,0
N/C(CSc1ccc(Cl)cc1)=N\S(=O)(=O)c1ccc(Cl)cc1,.,22,-2.1,-10,-3,2.5,0.2,11,-2,-3
CN1CCN(c2ccccc2NC(=O)COc2ccc(Br)cc2)CC1,19,-7,4.3,.,.,.,1.8,-19,-5,-10
Cc1ccc(Cl)cc1NC(=O)CNC(=O)N1CC(=O)Nc2ccccc21,4,-3,-0.8,5,11,-1.6,0.7,.,.,-2
Nc1ccc2oc3ccc(N)cc3c(=O)c2c1,27,-2,-3.7,.,.,.,-3.5,9,7,99*
COc1ccc(S(=O)(=O)N2CC=C(C(=O)Nc3ccc(NC(C)=O)cc3)CC2)cc1,8,-1,-1.2,-12,-8,2.3,0.2,1,-2,-10
CC(=O)Nc1ccc(OCC(O)Cn2c3ccccc3c3ccccc32)c(C)c1 (centres undefined),56*,-14,-2.2,.,.,.,1.0,6,10,-8
COC(=O)c1cc(S(=O)(=O)NCCCc2ccco2)c[nH]1,-10,0,2.5,7,-2,-0.9,0.2,1,-1,2
CCOC(=O)N1CCN(C(=O)C2CCC(=O)N(Cc3ccc(Cl)cc3)C2)CC1 (centres undefined),-1,5,3.4,10,3,-0.6,0.3,-6,6,1
Cc1ccc(C)c(OCC(O)CN2CCc3ccccc3C2)c1C (centres undefined),0,-1,-4.8,-7,-14,-9.6,0.8,-3,4,-9
COc1ccc(-c2cc(C(=O)Nc3cc(Cl)ccc3OC)no2)cc1,1,-1,0.2,17,13,0.6,-0.1,4,3,-4
C=CCN1C(=O)/C(=c2\sc3nc(=O)c(Cc4ccccc4Cl)nn3c2=O)c2ccccc21,-23,4,3.5,-9,-7,1.3,-1.0,9,-3,96*
COc1cccc(CC(=O)Nc2nc3c(s2)C(=O)CC(C)(C)C3)c1,7,-26,3.0,20,30,5.5,0.9,-3,1,-3
O=C(CCN1C(=O)C2CC=CCC2C1=O)Nc1cccc(Cl)c1 (centres undefined),-2,8,3.2,-5,-6,-1.1,0.3,-12,-2,18
C/C(=C\C(=O)Nc1cc(C)on1)c1ccccc1,-18,-5,0.1,.,.,.,-0.2,9,0,-5
CCOC(=O)N1CCN(C(=O)c2ccccc2CCc2ccccc2)CC1,7,7,5.7,.,.,.,0.7,-11,0,0
O=C1CC(c2ccccc2)=Nc2ccccc2N1,-13,2,2.4,-14,-13,-2.7,0.6,7,5,0
CSc1ccccc1NC(=O)CN(C)CC(=O)Nc1cccc(Br)c1,6,5,1.8,-19,-13,31,0.7,-8,-8,-123
Cc1ccc(C)c(NC(NC(=O)c2ccccn2)C(Cl)(Cl)Cl)c1 (centres undefined),-4,-8,3.2,-18,-1,1.6,-0.4,0,-4,3
COc1cc(C)c(S(=O)(=O)N2CCN=C2c2ccccc2)cc1C,-17,2,-1.8,.,.,.,0.1,4,-2,-18
C=CCn1c(Cc2c(C)[nH]c3ccccc23)nnc1SCC(=O)NCc1ccc(F)cc1,16,2,-0.6,.,.,.,-0.2,0,-5,.
CC(=O)N1CC(C)Sc2ccc(S(=O)(=O)NCc3ccc(Cl)cc3)cc21 (centres undefined),-9,0,-5.9,-44,-62,-11,0.3,-3,10,16
CCc1ccccc1NC(=O)CN(c1cccc(OC)c1)S(C)(=O)=O,-3,4,3.7,.,.,.,0.4,6,-8,-11
O=C(CSc1nc(=O)n2ccccc2n1)N1CCCCCC1,-7,-2,-4.4,11,9,2.3,-0.5,0,-4,.
Cc1cccc(NC(=O)COC(=O)CCCC2=NS(=O)(=O)c3ccccc3N2)c1,-16,-20,1.4,-3,3,6.6,0.3,-1,-8,-3

# Remaining list, next part
SMILES,T cruzi inh,Calb FLC,LANA-H2B inh,rRNA inh HTS,rRNA inh HTS OD600,rRNA inh HTS RFP,Bfl-1 A1 inh,Beta2AR agonist,Beta cell apopt,ALR H2O2 inh
CCCCN1Cc2cc(C(=O)c3cc(OC)ccc3O)cnc2NC1=O,1,-5,0.2,.,.,.,-0.8,9,-8,-9
COC(=O)c1cc(NC(=O)c2ccco2)ccc1N1CCOCC1,0,4,-0.5,10,10,0.4,0.3,-6,4,-5
COc1ccc(CCC(=O)OCC(=O)c2ccc(C)cc2)cc1,-1,-6,-3.9,.,.,.,-0.1,-2,-3,-3
COc1ccc(C2C(C(=O)Nc3ccccc3OC)=C(C)Nc3ncnn32)cc1 (centres undefined),-7,-3,0.2,6,10,-0.2,-0.6,-7,-1,27
CCc1nc2ccccc2n1Cc1ccc(F)cc1,-11,2,6.9,-3,-4,-2.4,-0.6,5,-5,-10
COc1ccc2cc(C3(C)NC(=O)N(CC(=O)NCCC4=CCCCC4)C3=O)ccc2c1 (centres undefined),10,45,-5.4,-2,-17,5.6,0.6,18,2,-33
O=Cc1ccc(OCCCOc2cccc3cccnc23)cc1,2,0,-2.2,-3,-3,-2.6,0.0,4,-3,-50
O=c1[nH]n(-c2ccccc2)c(=O)c2ccccc12,.,.,-3.2,9,4,-0.7,-0.8,9,1,-6
Cc1cc(C)n(Cc2cnc(N3CCOCC3)s2)n1,-16,1,0.4,17,13,2.4,-0.4,-1,2,-2
Cc1nc(C)c(C(=O)C2=C(O)C(=O)N(CCN(C)C)C2c2ccco2)s1 (centres undefined),2,20,2.4,13,-3,-0.4,1.3,0,.,-14
CC(C)Nc1ncnc2c1cnn2-c1ccc(Cl)cc1,19,28,0.0,-22,-48,-0.7,-0.9,6,.,-12
COc1ccc(OC)c(CN2CCN(c3ccccc3OC)CC2)c1,8,-19,-1.3,.,.,.,-0.1,15,1,15
O=C(COc1ccc2ccc(=O)oc2c1)NC1CCS(=O)(=O)C1 (centres undefined),.,.,3.7,9,2,4.9,0.3,.,5,-18
CCSc1nnc(-c2ccccc2N=Cc2c(C)[nH]n(-c3ccccc3)c2=O)c(=O)[nH]1,-11,-6,3.8,.,.,.,0.2,-11,1,95*
CCOC(=O)C1=C(Nc2ccc(OC)cc2)OCC1=O,-30,1,-4.2,17,1,0.9,0.5,-1,-1,-1
CCOC(=O)c1cc2occc2n1CC(=O)NCCOC,-11,9,2.3,.,.,.,-0.7,-6,-4,-2
